2A Renilla: Primary qHTS Assay for Foot and Mouth Disease Virus Antivirals against NCGC Sytravon and CBC Compound Libraries: Renilla Luciferase Signal; HEK cells with a luciferase reporter of 2A StopGo recoding; Potency, µM (top dose mostly 57.5 µM), inactives show at the highest dose signal change, negative = less light; 120,000 tested, 0.32% active; active means well fitted falling curve with a large enough effect; inconclusive means small, poorly fitted or top-dose-only effect; inactive means no such curve, though single readings can be large or run the other way; also: nearly all actives have a fitted effect of over 55% in size; overnight with compound
StopGo FLuc: Primary qHTS Assay for Foot and Mouth Disease Virus Antivirals against NCGC Sytravon and CBC Compound Libraries: Firefly Luciferase Signal | HEK cells with a luciferase reporter of 2A StopGo recoding | Potency, µM (doses to about 57.5 µM), for inactives: at the highest dose signal change, negative = less light | 120,000 tested, 0.23% active | AID 1745856, 2022; active = well fitted falling curve with a large enough effect; inconclusive = small, poorly fitted or top-dose-only effect; inactive = no such curve, though single readings can be large or run the other way; also: nearly all actives have a fitted effect of over 60% in size; overnight with compound
* = called active by the depositor; ? = inconclusive; & = joins results of further samples; [ ] = another dose, or the depositor's remark. % is scaled to controls: 0 for no effect and ±100 for the full control effect; potency is read from the fitted curve at half-maximal effect.

SMILES	2A Renilla	StopGo FLuc
Cc1ccc(-c2nnc(Nc3ccc(F)cc3)c3ccccc23)cc1S(=O)(=O)NC(C)C	-9%	-9%
COc1ccc(C(=O)COC(=O)CCCC(=O)Nc2ccc(C(C)=O)cc2)cc1	13%	144%[activator]
Cc1cccc(/C=C(/C#N)C(=O)c2c(C)[nH]c3ccccc23)c1	5%	8%
COC(=O)c1c(NC(=O)Nc2ccc(Cl)cc2)sc(C)c1C	-11%	-5%
O=C(CN1C=NS(=O)(=O)c2ccc(C(F)(F)F)cc21)Nc1cccc(C(F)(F)F)c1	16%	0%
Cc1ccc(C(C)(C)C)cc1SCC(O)COCc1ccc(Cl)cc1 (stereo not drawn)	1%	14%
CN(C)C(=O)Oc1ccc2c(=O)c(-c3ccc(Br)cc3)c(C(F)(F)F)oc2c1	?	0%
COc1cccc(NC(=O)C(C)Sc2ncnc3nc[nH]c23)c1 (stereo not drawn)	-18%	4%
COc1ccccc1OCCN1C(=O)C2(SC(NC(C)=O)=NN2C(C)=O)c2cc(Cl)ccc21 (stereo not drawn)	166%[activator]	12%
CCN(C(=O)Cc1c(C(=O)O)[nH]c2ccccc12)c1ccc(OC)cc1	1%	-13%

Quoted at random: 3 records from the list, in no set order.
SMILES	2A Renilla	StopGo FLuc
CN(C)C(=O)Oc1ccc2c(=O)c(-c3ccc(Br)cc3)c(C(F)(F)F)oc2c1	?	0%
COC(=O)c1c(NC(=O)Nc2ccc(Cl)cc2)sc(C)c1C	-11%	-5%
COc1cccc(NC(=O)C(C)Sc2ncnc3nc[nH]c23)c1 (stereo not drawn)	-18%	4%

Later entries.
SMILES	2A Renilla	StopGo FLuc
CC(/C=N/Nc1ccc([N+](=O)[O-])cc1[N+](=O)[O-])=C\c1ccco1	3%	41%[activator]
COc1ccc(OC)c(C2C(C(=O)Nc3ccccc3)=C(C)Nc3nc(SC)nn32)c1 (stereo not drawn)	13%	7%
CCOc1ccccc1NS(=O)(=O)c1ccc2oc(=O)c3ncn(C)c3c2c1	11%	-3%
CCn1c(SCC(=O)c2ccc[nH]2)nnc1-c1ccc(OC)cc1	0%	24%
Cc1nncn1-c1ccc(C(=O)Nc2cc(F)ccc2F)cc1	-8%	11%
O=C(NCc1ccc(Cl)cc1)C1=Cc2cc(Br)ccc2OC1	29%	6%
O=C(CCc1ncc(-c2ccccc2)o1)Nc1ccccc1O	7%	201%[activator]
CCC(=O)N1CCCc2cc(S(=O)(=O)N3CCC(C(=O)Nc4cccc(Cl)c4)CC3)ccc21	-4%	-10%
COc1ccccc1NC(=O)CSc1nncn1CCc1cccs1	-8%	-8%
CCCCNC(=O)CCn1c(=O)c2cccn2c2ccc(F)cc21	-4%	-18%
CCCNc1c(NC(=O)c2cc(Cl)ccc2OC)c(=O)oc2ccccc12	7%	10%
CC(=O)N1CCc2cc(S(=O)(=O)NC(CC(C)C)C(=O)Nc3cc(C)cc(C)c3)ccc21 (stereo not drawn)	133%[activator]	1%
CCN(Cc1nc2ccccc2c(=O)[nH]1)C(=O)Cc1csc(-c2ccc(C)cc2C)n1	?	-84%
O=C(N/N=C/c1ccsc1)c1ccc(Cl)cc1	39%[activator]	0%
O=C(NCc1ccc(F)cc1)c1ccccc1-c1ncc(-c2ccccc2)o1	52%[activator]	170%[activator]
Cc1cc(C)cc(NC(=O)COc2ncnc3ccccc23)c1	-11%	7%
COc1ccc(N2CCN(Cc3nc4c(c(=O)[nH]c(=O)n4C)n3Cc3ccccc3F)CC2)cc1	-13%	-15%
CNC(=O)c1ccc(NC(=O)C2CCCCC2)cc1	5%	21%
Cc1noc(Cn2c(=O)c3ccccc3n(CC(=O)Nc3ccc(F)cc3F)c2=O)n1	-23%	9%
Cc1ccc(-c2nc(CSCC(=O)NCc3cccs3)c(C)o2)cc1	-12%	43%[activator]
CN1CCN(C(=O)Cn2ccc3ccc(Br)cc32)CC1	-1%	19%
Oc1ccc(-c2nc3ccccc3s2)cc1	19%	?
Cc1ccc(-n2ncc3c(NC4CCCCCCCCCCC4)ncnc32)c(C)c1	-1%	-4%
COc1ccc(CNC(=O)c2ccc3c(c2)NC(=O)CS3)cc1	17%	0%
Cc1ccc(CNC(=O)C(C)N2CCN(c3ccc([N+](=O)[O-])c4cnccc34)CC2)cc1 (stereo not drawn)	-6%	-2%
Cc1nc2sccn2c(=O)c1S(=O)(=O)Nc1ccc(N2CCOCC2)c(Cl)c1	42%[activator]	5%
CCNc1oc(-c2ccc(COc3cc(C)ccc3C)o2)nc1C#N	-4%	-10%
COC(=O)C1CN(Cc2cn(Cc3ccc(F)cc3)nn2)CCS(=O)(=O)N1Cc1ccc(OC)cc1 (stereo not drawn)	21%	0%
O=C(CSc1nc(-c2cccs2)nc2cc(=O)[nH]n12)Nc1ccc(F)cc1	-21%	-12%
CSc1nn(Cc2cccc(Cl)c2)c(N(C(C)=O)C(C)=O)c1S(=O)(=O)c1ccccc1	43%[activator]	-9%
Cc1nc(-c2cccc(F)c2)sc1CCNC(=O)c1c(F)cccc1Cl	-10%	5%
CS(=O)(=O)c1ccc(F)c(NC(=O)CCCc2cccs2)c1	-11%	-3%
O=C(O)c1ccc2nc(CCl)[nH]c2c1	0%	?
Cc1ccc2[nH]c(C)c(/C=C/c3cc[n+](C)cc3)c2c1	11µM*	13µM*
COc1ccc(C)cc1NC(=O)c1cccn(Cc2ccccc2Cl)c1=O	-13%	-11%
O=C(CS(=O)(=O)Cc1coc(-c2ccccc2)n1)N1CCCCC1	61%[activator]	9%
Cc1ccc(-n2ncc3c(NCCc4ccccc4)ncnc32)cc1C	-7%	91%[activator]
O=C(CSc1nnc(-c2ccccc2)c(-c2ccccc2)n1)NC1CCCC1	-10%	-23%
CCOc1ccc(CN(CCOC)Cc2cc(=O)n3ccc(C)cc3n2)cc1	-11%	20%
Cc1cc(C[n+]2ccccc2)c(C)cc1C[n+]1ccccc1	-4%	6%
CCCN1Cc2cccc(C(=O)Nc3cc(Cl)ccc3C)c2C1=O	1%&-2%	5%&-5%
O=C(/C=C/c1ccc(-c2ccccc2Cl)o1)c1ccc2ccccc2c1	-9%	23%
CN(C(=O)Cn1cc(C#N)c2ccccc21)C1CCCCC1	-8%	-3%
O=c1cc(CN2CCN(c3ccccc3F)CC2)c2cc(O)ccc2o1	-6%	-6%
CC(=O)c1ccc(NC(=O)Cn2c(=O)c3cccn3c3ccccc32)cc1	-9%	-20%
COc1cccc(CNC(=O)COc2ccc3c(C)cc(=O)oc3c2)c1	-3%	4%
COC(=O)[C@H](C(C)C)N1Cc2nnn(Cc3ccc(C)cc3)c2-c2ccccc2S1(=O)=O	203%[activator]	-12%
CC(C)CN1CCN(CCO)CC1	6%	-2%
Cc1ccsc1/C=C1\Oc2cc(OS(C)(=O)=O)ccc2C1=O	0%	107%[activator]
Cc1noc(C(C)Nc2ccc3oc(C(C)(C)C)nc3c2)n1 (stereo not drawn)	-12%	0%
Remaining list, next part.
SMILES	2A Renilla	StopGo FLuc
CCOc1ccc2nc(SCC(=O)N3CCN(S(=O)(=O)c4ccccc4)C3C(C)C)[nH]c2c1 (stereo not drawn)	?	25µM*
CC1(C)SC2c3ccccc3C(=O)N2[C@@H]1C(=O)NCc1ccc(F)cc1 (stereo partly drawn)	125%[activator]	12%
COC(=O)c1c(C)oc2ccc(OS(C)(=O)=O)cc12	39%	114%[activator]
O=S(=O)(c1ccc2oc3ccc(S(=O)(=O)N4CCCCCC4)cc3c2c1)N1CCCCCC1	14%	20%
Cc1ccccc1NC(=O)Cn1c(=O)n(Cc2ccc3c(c2)OCO3)c(=O)c2oc3ccccc3c21	1%	-11%
CCCN1CCC(NC(=O)c2csc3c2CCCC3)CC1	-8%	-2%
Cc1ccccc1-n1nnnc1SCc1ncc(-c2ccccc2)o1	22%	23%
Cc1nc(SCC(=O)Nc2ccc(C#N)cc2)n(CC(C)C)c1C	164%[activator]	75%[activator]
Cc1ccccc1C(=O)Nc1ccc(S(=O)(=O)N2CCC(c3nc4ccccc4s3)CC2)cc1	-20%	-30%
CN(Cc1ccc(F)cc1)S(=O)(=O)c1nnc(NC(=O)c2ccccc2)s1	118%[activator]	0%

Looked up above.
`CN(Cc1ccc(F)cc1)S(=O)(=O)c1nnc(NC(=O)c2ccccc2)s1` @ StopGo FLuc = 0%
`O=S(=O)(c1ccc2oc3ccc(S(=O)(=O)N4CCCCCC4)cc3c2c1)N1CCCCCC1` @ StopGo FLuc = 20%

(list continues)
SMILES	2A Renilla	StopGo FLuc
Cc1[nH]c2ccccc2c1C(=O)NCc1ccc(CN(C)C)cc1	11%	0%
CCOC(=O)CSc1nc2sc3c(c2c(=O)n1-c1ccccc1)CC(C(C)C)OC3 (stereo not drawn)	6%&-1%	17%&4%
CCN(CC)C(=O)Cn1c(SCCOc2ccc(Cl)cc2)nc2ccccc21	18%	-5%
Cc1ccc(C)c(N2CCN(C(=O)c3cc(S(=O)(=O)N4CCCCCC4)cn3C)CC2)c1	1%	-7%
O=C(NCCN1CCCCCC1)C1CCC1	6%	-5%
CC(C)CC(=O)Nc1ccc(C(N)=O)c(Cl)c1	-3%	4%
CC(C)c1ccccc1NC(=O)c1cc(Cl)ccc1F	10%	20%
COc1cc2nc(Nc3ccc(C)c(C)c3)nc(N)c2cc1OC	4%	36%[activator]
COc1ccc(Cl)cc1NC(=O)Cc1coc2c(C)c(C)ccc12	7%	-2%
Cc1nnc2n1CC(Nc1ncc(C(F)(F)F)cc1Cl)CC2 (stereo not drawn)	1%	0%
O=C(NCc1cccs1)c1nn(-c2ccccc2)nc1CO	?	?
Cc1cccc(CS(=O)(=O)CC2Nc3ccc(C(=O)NCc4ccccc4Cl)cc3NC2=O)c1 (stereo not drawn)	0%	-5%
Cc1sc(NC(=O)CN2CCCCC2)nc1-c1ccccc1	-1%	13%
O=C(NCc1ccccc1F)C1CCN(Cc2cc3ccccc3n2Cc2cccc(Cl)c2)CC1	18%	-13%
CCOC(=O)c1c(C)[nH]c(C)c1S(=O)(=O)NCC(=O)Nc1cc(Cl)ccc1OC	13%	-21%
COc1ccc(CCNC(=O)c2cc(-c3cc(C)ccc3O)n[nH]2)cc1OC	3%	24%
O=C(CCn1c(=O)c2cccn2c2cccnc21)Nc1ccccc1C(F)(F)F	3%	5%
CC(=O)Nc1ccc2nc(SCCOc3cc(C)cc(C)c3)sc2c1	-17%	2%
COCCn1c(-c2ccc(OC)cc2)nc2c1c(=O)[nH]c(=O)n2CC(C)C	-1%	19%
O=C(Nc1ccc2c(c1)CCCN2C(=O)c1cccs1)c1ccccc1	?	-9%

6 entries from above, ordered by SMILES length, low to high.
SMILES	2A Renilla	StopGo FLuc
O=C(NCc1cccs1)c1nn(-c2ccccc2)nc1CO	?	?
Cc1nnc2n1CC(Nc1ncc(C(F)(F)F)cc1Cl)CC2 (stereo not drawn)	1%	0%
CCCNc1c(NC(=O)c2cc(Cl)ccc2OC)c(=O)oc2ccccc12	7%	10%
CC(=O)c1ccc(NC(=O)Cn2c(=O)c3cccn3c3ccccc32)cc1	-9%	-20%
COc1ccc(C(=O)COC(=O)CCCC(=O)Nc2ccc(C(C)=O)cc2)cc1	13%	144%[activator]
Cc1ccc(-c2nnc(Nc3ccc(F)cc3)c3ccccc23)cc1S(=O)(=O)NC(C)C	-9%	-9%

More compounds:
SMILES	2A Renilla	StopGo FLuc
Cc1ccc2nc(-c3cc(NC(=O)/C=C/c4ccccc4)ccc3Cl)oc2c1	-6%	38%[activator]
CCn1c(SC(C)C(=O)Nc2ccc3c(c2)OCO3)nc2ccc(Br)cc2c1=O (stereo not drawn)	-2%	14%
COC(=O)c1cn(CC(=O)N2CCC(C)CC2)c2ccccc12	5%	57%[activator]
CCc1ccc(NS(=O)(=O)c2ccc3c(c2)c(=O)n(CC(=O)N2CCCCCC2)c(=O)n3C)cc1	37%[activator]	?
COc1ccc(-c2noc(N3CCN(c4ccc(Cl)cc4)CC3)n2)cc1OC	-5%	-13%
CCc1ccccc1-n1c(SCc2nc3ccccc3o2)nnc1N1CCOCC1	3%	11%
COc1cc2[nH]c(=O)n(CCC(=O)N3CCN(c4ccc(Cl)cc4)CC3)c(=O)c2cc1OC	-13%	-22%
Cc1ccc2nc(COc3cccc(NC(=O)Nc4ccc(C)c(Cl)c4)c3)cc(=O)n2c1	12%	39%[activator]
CC(=O)N1c2ccccc2-c2nnc(SCc3ccccc3)nc2OC1C (stereo not drawn)	1%	-5%
COc1ccccc1C1=Nn2c(nc3sc(C(=O)Nc4ccccc4Cl)c(C)c3c2=O)SC1	-15%	-15%
COc1cc(/C=C/C(=O)c2cccc([N+](=O)[O-])c2)cc(OC)c1	-6%[1.06 µM]	-5%
CNC(=O)C1CCN(C(=O)c2cn(Cc3ccccc3)c3ccccc23)CC1	113%[activator]	-9%
Cc1cccc(C)c1-n1nnnc1SCn1nnc2ccccc2c1=O	18µM*	20µM*
COc1ccc(CNC(=O)CSc2nnc3c4cc(-c5ccc(F)cc5)nn4ccn23)cc1	-5%	85%[activator]
CCC(NC(=O)CN(C)Cc1ccc(C)o1)c1ccc(C)cc1 (stereo not drawn)	-1%	-8%
O=C(O)c1c(-c2ccccc2)oc2ccc(OCc3c(F)cccc3Cl)cc12	115%[activator]	71%[activator]
COc1ccc(-c2c(C)c3ccc(O)c(C)c3oc2=O)cc1	8%	16%
COc1ccc2[nH]cc(CCNC(=O)CCC3CCCCC3)c2c1	19%	3%
Cn1c(=O)c2c(nc(NCCO)n2Cc2c(Cl)cccc2Cl)n(C)c1=O	?	?
CCc1ccccc1NC(=O)c1ncoc1-c1ccc(OC)c(OC)c1	-1%	12%
Cn1ccnc1C(NC(=O)c1n[nH]c(=O)c2ccccc12)c1ccccc1 (stereo not drawn)	-3%	7%
